Screening results from PubChem.
PrP UTR inh: inhibition of PrP 5' UTR reporter expression | cell-based PrP 5' UTR mRNA reporter, plate reader | inhibition, % (test concentration not listed) | actives 0.35% (n = 340,000) | AID 488862;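 active = every replicate at 50% or more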;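 note: 0 = median of the neutral control wells; tested in H4 reporter cells; numbers are from one replicate; inactives centre near -14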
BJeLR viability: BJeLR cell viability loss; BJeLR (HRASV12) viability, CellTiter-Glo ATP luminescence, 48 h; reference of the scale not given here; inhibition, % (no concentration beside the values); actives 0.17% (n = 300,000);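 active = replicate mean above 50%; inconclusive = above 50% but judged a plate artefact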;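 note: 50 nL library stock added to about 25 µL; numbers are from one replicate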
Bead autofluor: counter-screen for toxin protease inhibitors: compound fluorescence | compound autofluorescence counterscreen, microsphere flow cytometry; stronger effect = higher value | AID 624483 | fluorescence intensity (no concentration beside the values) | actives 3.1% (n = 360,000);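 active = at least 3 SD above the mean of all compounds, about 16000 in these data; inconclusive = too few beads counted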;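 note: 100 nL of 1 mM stock went into each well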
Sa RN4220 lethal: kills Staphylococcus aureus RN4220 | S. aureus RN4220 growth, OD600, 16 h | inhibition, % (concentration not given with the values) | actives 0.33% (n = 330,000) | AID 1259311;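 active = z-score of -3 or lower and OD600 up to 0.18 on both plates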;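 note: plate controls were untreated cells for no effect and reference antibiotic for full effect; stock transfer was 100 nL into about 80 µL; one replicate is shown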
ugtP null kill: growth inhibition of S. aureus ugtP deletion strain; S. aureus RN4220 ugtP deletion, OD600 growth, 16 h; some inactives read as strong as hits; growth inhibition, % (concentration not given with the values); actives 0.54% (n = 330,000); AID 1259309;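 active = z-score under -3 and OD600 up to 0.15 on both plates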;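 note: plate controls were untreated wells for no effect and antibiotic for full effect; wells of about 80 µL received 100 nL stock; the first replicate is given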
Mtb hypoxia inh: Mtb hypoxia fluorescent reporter inhibition. M. tuberculosis hypoxia-regulated fluorescent reporter, fluorescence. fluorescence inhibition, % (concentration not given with the values). actives 0.1% (n = 300,000). AID 1159583;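 active = 35 to 45% if threefold the growth effect, above 45% if 1.5-fold the growth effect; inactive = the rest, general growth blockers included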;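 note: wells of about 50 µL received 100 nL stock; 0% = vehicle wells and 100% = reference inhibitor wells; whole bacteria with a GFP reporter of the hypoxia response; strong numbers were not always called active; many hits fall short of the cut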
Mtb hypoxia inh growth: recorded beside Mtb hypoxia inh, whose call it bears; growth inhibition, %; measured here: M. tuberculosis growth (absorbance);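 0% = vehicle and 100% = reference antibiotic; read after six days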
An asterisk follows results filed as active; u = inconclusive; x = no result given.

1	CCn1c(=N)n(CCO)c2ccccc21
2	O=C(CN1CCN(S(=O)(=O)c2ccc(Br)cc2)CC1)N/N=C/c1ccc(Br)s1
3	O=C(NCCN1C(=O)S/C(=C\c2ccccc2F)C1=O)C1CC(=O)N(Cc2ccccc2)C1 (configuration not stated)
4	CCOc1ccc(NC(=O)CN(C)C(=O)c2ccc3nc(CC)c(CC)nc3c2)cc1OCC
5	CCSCc1nnc(SCC(=O)Nc2cccc(C(C)=O)c2)n1C
6	COc1ccc(Br)cc1C=NNc1ccc(Cl)c(C(=O)O)c1
7	CCOC(=O)c1cnc2c(ccc3ccccc32)c1NCCCN(C)C
8	CSc1cccc(NC(=O)c2cnccn2)c1

Assay by compound,1,2,3,4,5,6,7,8
PrP UTR inh,-13,-9,-24,-12,-33,x,-41,-23
BJeLR viability,-2,5,x,4,7,x,14,-1
Bead autofluor,2585,3139,x,x,3346,x,3431,2816
Sa RN4220 lethal,-2.8,x,5.9,5.7,-9.4,-3.9,-5.5,1.2
ugtP null kill,1,x,6,-2,-6,0,-12,2
Mtb hypoxia inh,x,x,6,9,-5,10,22,x
Mtb hypoxia inh growth,x,x,-3,2,1,6,7,x

9	CCCC(=O)N(c1ccc2oc(=O)sc2c1)S(=O)(=O)c1ccccc1
10	CCN(CC)CCC(=O)O[C@H]1CC[C@]2(C)C3CC[C@@]4(C)C(CC[C@]4(C)O)C3CC[C@H]2C1 (some centres not stated)
11	O=C(CSc1nc(-c2ccccc2Cl)ns1)Nc1ccc2c(c1)OCO2
12	CCOc1ccccc1Nc1ncccc1C(=O)O
13	COc1ccc(CN(CC(=O)NCc2ccc(F)cc2)C(=O)c2ccco2)cc1
14	Cc1nccn1CC(=O)NN=Cc1cc(Br)cs1
15	CC(O)c1ccc2c(c1)OCCOCCN(C)CCOCCO2 (configuration not stated)
16	Cc1ccc(NS(=O)(=O)c2cc3c(cc2C)NC(=O)CO3)cc1

Assay by compound,9,10,11,12,13,14,15,16
PrP UTR inh,1,-21,-28,-1,-25,x,-14,-14
BJeLR viability,-7,x,4,-7,-14,x,6,6
Bead autofluor,2051,3105,2711,9182,3151,x,5517,6808
Sa RN4220 lethal,11,-5.8,0.3,4.7,3.7,-0.4,-0.4,-11
ugtP null kill,-7,23,-2,-7,6,7,-4,17
Mtb hypoxia inh,x,-2,-3,7,11,0,x,7
Mtb hypoxia inh growth,x,0,3,13,1,-5,x,10

17	Cc1ccc(SCc2nn(C)c(Cl)c2C=O)cc1
18	O=C(N/N=C/c1ccccc1C(=O)O)C(=O)N1CCCCC1
19	NC(=O)c1ccsc1NC(=O)COC(=O)CSc1ccc(Cl)cc1
20	O=S(=O)(Nc1ccc(Cl)c(Cl)c1)N1CCOCC1
21	O=C(NC(=S)N(CCCCO)C1CCCCC1)c1sc2ccccc2c1Cl
22	CC1CCN(S(=O)(=O)c2ccc3c(c2)N(CC(=O)NCc2cccnc2)C(=O)CS3)CC1
23	CC1CC(C)CN(C(=O)Cn2c(=O)c3cccn3c3cccnc32)C1 (configuration not stated)
24	C#CCNC(=O)C1=C[C@H](c2cn(C(C)=O)c3ccccc23)[C@@H](CCCO)[C@H](OCC)O1

Assay by compound,17,18,19,20,21,22,23,24
PrP UTR inh,-26,-21,-32,-5,-2,-18,-1,-8
BJeLR viability,9,9,-8,2,-2,1,-1,3
Bead autofluor,4561,2743,2184,6055,10800,2256,6366,3873
Sa RN4220 lethal,7.2,x,6.2,3.2,50,2.0,3.2,x
ugtP null kill,18,x,3,1,60,5,1,x
Mtb hypoxia inh,8,x,-2,2,4,18,19,x
Mtb hypoxia inh growth,3,x,5,8,-2,7,6,x

Single entries from the list.
no. 22 | Mtb hypoxia inh growth: 7
no. 21 | ugtP null kill: 60
no. 23 | ugtP null kill: 1

(continued)
25	COc1ccc2nc3sc(C(=O)N4CCN(C)CC4)cc3cc2c1
26	CCN(C[C@H]1N[C@@](CC)(C(=O)OC)[C@H]2C(=O)N(C)C(=O)[C@@H]12)S(=O)(=O)c1ccc(OC(F)(F)F)cc1
27	CCc1ccc(CN(C)C(=O)c2cc(COc3c(F)cccc3F)on2)cc1
28	Cc1cccc(C)c1NC(=S)N(Cc1ccccc1)Cc1cccs1
29	O=C(CSc1cccc[n+]1[O-])Nc1ccccc1Oc1ccccc1
30	NC(=O)c1cc(-c2ccccc2)nc2ccc(Br)cc12
31	CCOC(=O)n1n[n+]([O-])c2ccccc21
32	O=C(COC(=O)Cn1cnc2ccccc2c1=O)NCc1ccccc1Cl

Assay by compound,25,26,27,28,29,30,31,32
PrP UTR inh,-33,-2,-22,-5,-2,-26,-18,-10
BJeLR viability,-7,x,-5,1,-7,-10,14,-6
Bead autofluor,2786,3324,4157,4406,4290,x,2475,4329
Sa RN4220 lethal,-0.2,2.8,4.4,11,13,2.0,3.0,4.4
ugtP null kill,-5,-4,6,12,0,5,-1,6
Mtb hypoxia inh,x,-8,-4,-7,x,6,4,12
Mtb hypoxia inh growth,x,-6,9,2,x,0,4,11

33	O=C(NN=Cc1ccc(-c2ccccc2[N+](=O)[O-])o1)C1COc2ccccc2O1 (configuration not stated)
34	COc1ccc(NC(=O)CSc2nnc(C3CCCCC3)n2N)c(OC)c1
35	Clc1ccccc1OCCCn1ccnc1
36	CC(=NNC(=O)Cc1cccs1)c1ccco1
37	CCOc1ccc(C(C)NC(=O)Nc2ccc(F)cc2F)cc1 (configuration not stated)
38	CN(c1ccccc1)S(=O)(=O)c1ccc(C(=O)OCC(=O)N2CCOCC2)cc1
39	COc1ccc(NC(C)=O)cc1S(=O)(=O)Nc1ccc(OCc2ccccc2)cc1
40	Cc1cc(C)c(S(=O)(=O)c2ccccc2Cl)c(Cl)n1

Assay by compound,33,34,35,36,37,38,39,40
PrP UTR inh,x,-15,-32,x,-9,-4,-14,x
BJeLR viability,x,1,-9,x,0,6,-10,9
Bead autofluor,x,5265,3356,x,5339,4158,5033,4787
Sa RN4220 lethal,1.7,5.4,1.1,-0.5,2.3,3.9,1.7,0.2
ugtP null kill,-17,8,-2,5,-11,1,10,-3
Mtb hypoxia inh,3,9,-3,3,2,14,-3,-3
Mtb hypoxia inh growth,-5,15,5,5,8,12,0,15

41	O=C(N/N=C/c1ccccc1O)C1(O)c2ccccc2-c2ccccc21
42	Cc1sc2ncnc(OCC(=O)NC(C)C(C)C)c2c1C (configuration not stated)
43	O=C(NCc1ccc2c(c1)OCO2)c1ccc(CS(=O)(=O)c2ccc(Br)cc2)o1
44	Cc1cccc(C(=O)NNC(=O)c2ccc(NC(=O)C(C)(C)C)cc2)c1
45	O=C1N(Cc2ccc3c(c2)OCO3)c2ccccc2C1(O)c1c[nH]c2ccccc12 (configuration not stated)
46	O=C(CN(C(=O)c1csnn1)c1ccc(F)c(Cl)c1)NCc1ccc(F)cc1
47	COc1ccc(CC(=O)N[C@@H]2c3ccccc3CC[C@@H]2OCc2ccccc2)cc1
48	O=C(COC(=O)CCCOc1ccc(Cl)cc1Cl)NCc1ccc(F)cc1

Assay by compound,41,42,43,44,45,46,47,48
PrP UTR inh,-28,-25,-7,-6,-11,-11,-17,-17
BJeLR viability,4,-11,-5,-1,12,0,x,-4
Bead autofluor,2619,2354,5604,4132,10008,6285,3009,2319
Sa RN4220 lethal,x,4.8,3.3,-2.6,5.1,-3.2,7.1,6.0
ugtP null kill,x,8,0,-2,-7,-2,5,1
Mtb hypoxia inh,x,-1,x,-2,-1,10,4,x
Mtb hypoxia inh growth,x,-5,x,10,6,8,6,x

49	CC(CNC(=O)CCn1c(=O)c2cccn2c2ccc(F)cc21)c1ccccc1 (configuration not stated)
50	COCCNC(=O)CCCn1c(=O)c2cc(OC)c(OC)cc2n(CC(=O)Nc2ccccc2OC)c1=O
51	O=C(CSc1nnc(-c2ccc3c(c2)OCO3)o1)Nc1ncc(Cl)cc1Cl
52	CC(Oc1ccccc1)C(=O)NNC(=O)c1cccs1 (configuration not stated)
53	CCCS(=O)(=O)N1CCCC(C(=O)NC(C)c2ccc3c(c2)OCCO3)C1 (configuration not stated)
54	CC1C(=O)N2CCCc3cc(S(=O)(=O)N4CCN(c5ccc(F)cc5)CC4)cc1c32 (configuration not stated)
55	CCc1ccccc1NC(=O)C1CCN(C(=O)N2CCOc3ccccc32)CC1
56	CC(C)OCc1ccc(C(=O)N2CCN(S(=O)(=O)c3ccc(Br)s3)CC2)cc1

Assay by compound,49,50,51,52,53,54,55,56
PrP UTR inh,-18,-11,3,-18,1,-18,-17,-3
BJeLR viability,2,-3,-4,3,-2,2,0,x
Bead autofluor,5347,5922,2829,4089,3077,4845,4515,3568
Sa RN4220 lethal,3.5,4.1,x,4.9,16,0.8,-6.5,3.1
ugtP null kill,10,4,x,8,3,3,3,2
Mtb hypoxia inh,15,6,x,3,-4,-1,9,4
Mtb hypoxia inh growth,8,6,x,2,1,9,10,8

Of the compounds above, three contain a COOH group:
6	COc1ccc(Br)cc1C=NNc1ccc(Cl)c(C(=O)O)c1
12	CCOc1ccccc1Nc1ncccc1C(=O)O
18	O=C(N/N=C/c1ccccc1C(=O)O)C(=O)N1CCCCC1

Assay by compound,6,12,18
PrP UTR inh,x,-1,-21
BJeLR viability,x,-7,9
Bead autofluor,x,9182,2743
Sa RN4220 lethal,-3.9,4.7,x
ugtP null kill,0,-7,x
Mtb hypoxia inh,10,7,x
Mtb hypoxia inh growth,6,13,x

Next structures.
57	COc1ccc(C)cc1NC(=O)C1CCCN(S(=O)(=O)c2cccnc2)C1 (configuration not stated)
58	Cc1ccc(NC(=O)c2sc3ccccc3c2Cl)nc1
59	O=S(=O)(NC1CCCCCCC1)c1ccc(F)cc1
60	COc1ccccc1CNC(=O)Cc1ccccc1
61	O=C(CNC(=O)c1ccccc1)N/N=C/c1ccc([N+](=O)[O-])s1
62	CC(=O)c1ccc(-c2ccc([C@H]3[C@@H]4C=CCC[C@@]4(C)C(=O)N3Cc3ccccc3)c(F)c2)cc1
63	COc1ccc(C(=O)NNC(=O)CCn2nnc(-c3ccc(Cl)cc3)n2)cc1OC
64	O=C(NCCCCc1ccccc1)c1ccc(Br)cc1

Assay by compound,57,58,59,60,61,62,63,64
PrP UTR inh,-33,-17,x,-43,-15,-11,-9,-31
BJeLR viability,4,7,-8,-14,-2,-2,-18,-5
Bead autofluor,5679,4227,5523,4598,2872,2919,4258,4162
Sa RN4220 lethal,0.8,3.7,5.9,1.7,x,x,3.6,-3.0
ugtP null kill,0,6,-3,13,x,x,4,13
Mtb hypoxia inh,-5,6,10,7,x,x,9,4
Mtb hypoxia inh growth,-3,2,2,5,x,x,3,-2

65	CCCC(=NCc1ccccc1)C1=C(O)C(C(=O)OC)C(C)(C)CC1=O (configuration not stated)
66	O=C1NC(=S)NC(=O)C1C/C=C/c1ccccc1
67	CC(=O)Nc1cccc(C(=O)OCC(=O)NC(C)c2ccc(F)cc2)c1 (configuration not stated)
68	COc1ccc(-c2nc3nc(C)cc(=O)n3[nH]2)cc1
69	O=[N+]([O-])c1ccc(NN=Cc2ccccc2)cc1
70	Cc1nn(C)cc1CNC(=O)Nc1cccc(Cl)c1
71	Clc1ccc(-c2csc(N/N=C/c3cccnc3)n2)c(Cl)c1
72	Cc1ccc2oc3nc(C)c(C(=O)Nc4cccc(C(F)(F)F)c4)cc3c(=O)c2c1

Assay by compound,65,66,67,68,69,70,71,72
PrP UTR inh,-40,-32,-11,-11,x,-43,-5,-60
BJeLR viability,-5,-2,6,-6,x,7,4,-1
Bead autofluor,4120,10419,4421,5733,x,4122,6647,22965*
Sa RN4220 lethal,5.8,3.3,3.6,3.2,-12,-2.3,x,2.2
ugtP null kill,1,-1,2,2,-35,1,x,4
Mtb hypoxia inh,7,7,-16,14,-7,x,x,6
Mtb hypoxia inh growth,12,1,-5,4,2,x,x,1

73	Cc1cc(C)c2c(CN3CCCCC3)cc(=O)oc2c1
74	COC(=O)Cn1c(C(F)(F)F)nc2ccccc21
75	CCN1CCN(C(=S)c2ccc(Cl)cc2)CC1
76	Cc1ccc(-c2cc(C(=O)NN3CCOCC3)c3cc(Br)ccc3n2)o1
77	CN(C)P(=NC(=S)c1cccn1C)(N(C)C)N(C)C
78	CC(=O)N1CCN(C(=O)c2cccc(S(=O)(=O)N3CCOCC3)c2)CC1

Assay by compound,73,74,75,76,77,78
PrP UTR inh,-2,-15,-12,-18,-35,-16
BJeLR viability,9,6,-6,-4,-9,x
Bead autofluor,4874,4753,3939,4400,7013,u
Sa RN4220 lethal,3.9,2.4,0.5,0.5,7.3,1.7
ugtP null kill,5,5,6,5,0,2
Mtb hypoxia inh,10,0,6,1,0,-7
Mtb hypoxia inh growth,2,16,8,2,7,4
